GLA inh pH 4.5 = alpha-galactosidase A (human) inhibition, pH 4.5; P06280; purified enzyme, 4-MU-alpha-Gal fluorescence, pH 4.5; activity change, negative = inhibition, % at 105 µM; 230,000 tested, under 10 active; AID 1467; inconclusive = small, poorly fitted or top-dose-only inhibition, or a rising curve; inactive = flat fitted curve, though single readings scatter; no compound was filed as active;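 note: 0% = full activity with enzyme and -100% = basal without enzyme; dose as in the result columns while the protocol names 77 µM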
Rango release inh = inhibitors of RanGTP-induced Rango-importin beta complex dissociation; AID 540253; hit rate 0.071% among 340,000; O95149+P62826; Potency, µM (highest dose often 46.1 µM), for inactives: at the highest dose activity change, negative = inhibition; Biochemical FRET Rango-importin beta, RanGTP-induced dissociation; active means falling FRET ratio curve, often poorly fitted, with flat reads before Ran was added; inconclusive means other falling curves, or compound fluorescence or quenching; inactive means flat or rising ratio curve;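 note: potency is the fitted concentration of half-maximal effect; % of control where 0% means no effect; nearly all actives have a fitted effect of over 45% in size; -100% = wells without RanGTP and RCC1; the record marks most hits as doubtful in a second field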
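Rango (0.1 uM)–importin beta (0.25 uM) complex; RanGTP-RCC1 trigger; 45 min RT; CFP/YFP FRET read.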
miR-21 FLuc = raises the signal of a miR-21 reporter | HeLa miR-21 FLuc reporter, luciferase, 48 h | Potency, µM (top dose mostly 38.3 µM), for inactives: at the highest dose reporter change, positive = more light | 340,000 tested, under 10 active; active = well fitted rising curve with a large enough effect; inconclusive = small, poorly fitted or top-dose-only effect; inactive = no such curve, though single readings can be large or run the other way;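 note: % of control where 0% means no effect; miR-21 action dims this reporter so a rising signal means less miR-21 action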
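Using DMEM plus 10% FBS, HeLa miR-21-FLuc cells are incubated with test compounds (final up to about 40uM) for 48 hours; firefly luciferase signal is then imaged following reagent-mediated lysis.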
Rango complex inh = Rango-importin beta binding inhibition. Rango CFP/YFP FRET sensor + importin beta, 45 min. Potency, µM (top dose mostly 92.2 µM), without a hit: at the top dose inhibition of complex formation. hit rate 0.031% among 340,000. AID 540263; active = rising FRET ratio curve, often small or poorly fitted; inconclusive = mostly compound fluorescence or quenching in the first reads; inactive = flat curves in all reads;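 note: potency is the fitted concentration of half-maximal effect; 0% = DMSO wells and 100% = buffer wells lacking importin beta; nearly all actives have a fitted effect of over 15% in size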
Target sequence (Q14974 whole entry, looked up): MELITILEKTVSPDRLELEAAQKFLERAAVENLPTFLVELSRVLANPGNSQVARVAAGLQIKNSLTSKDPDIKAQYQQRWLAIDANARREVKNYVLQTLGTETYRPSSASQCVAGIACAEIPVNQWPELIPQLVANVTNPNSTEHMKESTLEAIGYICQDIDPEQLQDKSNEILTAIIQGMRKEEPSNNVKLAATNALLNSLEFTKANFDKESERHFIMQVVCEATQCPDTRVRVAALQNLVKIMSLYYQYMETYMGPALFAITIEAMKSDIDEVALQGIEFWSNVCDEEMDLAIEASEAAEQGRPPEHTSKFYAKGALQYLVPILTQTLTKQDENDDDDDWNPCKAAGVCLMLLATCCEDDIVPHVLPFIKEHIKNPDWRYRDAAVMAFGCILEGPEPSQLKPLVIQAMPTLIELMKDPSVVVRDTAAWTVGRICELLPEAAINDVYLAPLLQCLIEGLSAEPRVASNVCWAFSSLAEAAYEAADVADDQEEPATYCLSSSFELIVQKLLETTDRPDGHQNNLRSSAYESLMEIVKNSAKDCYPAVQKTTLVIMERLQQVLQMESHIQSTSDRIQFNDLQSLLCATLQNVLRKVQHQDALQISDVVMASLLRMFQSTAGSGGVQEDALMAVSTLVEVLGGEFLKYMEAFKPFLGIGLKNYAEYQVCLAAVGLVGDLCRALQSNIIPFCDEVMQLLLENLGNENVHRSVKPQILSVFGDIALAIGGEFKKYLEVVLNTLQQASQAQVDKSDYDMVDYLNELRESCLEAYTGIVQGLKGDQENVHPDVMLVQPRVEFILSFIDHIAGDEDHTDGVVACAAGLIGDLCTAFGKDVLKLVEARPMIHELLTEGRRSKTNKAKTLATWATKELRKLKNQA
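FRET biosensor Rango (snurportin 1 IBB between N-terminal EYFP and C-terminal Cerulean), 50 nM in PBS/1 mM DTT/0.02% Tween-20/0.1% BSA, preincubated 5 min RT with compound; 0.125 microM importin beta added, 45 min RT, CFP/YFP FRET ratio read.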
Numbers without * were called inactive; ? = inconclusive; . = no result given; & = joins results of further samples. Some of the compounds tested; rates above refer to the full screens.

The line under a structure holds: GLA inh pH 4.5	Rango release inh	miR-21 FLuc	Rango complex inh
COc1ccc(C2C(C(=O)OC3CCCCC3)=C(C)Nc3nnnn32)c(OC)c1OC (configuration not stated)
→ -1.6	14.7%	0.6%	1.9%
Cc1cc(C)cc(NC(=O)c2ccc(CSc3nnnn3C)cc2)c1
→ 1.1	11.0%	-10.2%	-0.8%
Cc1nnc(SCC(=O)N(C)Cc2ccccc2)[nH]c1=O
→ -1.0	18.5%	-0.2%	5.9%
Cc1ccc(C(=O)Nc2ccccc2N2CCCCC2)cc1S(=O)(=O)N1CCOCC1
→ .	0.1%	.	2.0%
CCOC(=O)c1nnn(CC(=O)N2N=C(c3ccccc3)CC2c2ccccc2)c1C(=O)OCC (configuration not stated)
→ 0.5	-5.1%	-3.8%	-4.5%
O=S(=O)(Nc1c(O)ccc2ccccc12)c1cccc2ccccc12
→ .	-7.1%	.	-0.3%
COc1ccc2c(CCNC(N)=S)c[nH]c2c1
→ 2.0	-0.7%	-7.1%	0.0%
O=C1CSCN1c1ccc(Cl)c(Cl)c1
→ 6.4	5.4%	5.4%	0.6%
Cc1ccc(NC(=O)Cn2cc(C=O)c3ccccc32)cc1
→ .	0.4%	14.8%	-2.8%
COc1cc(OC)cc(C(=O)NCC2CCCO2)c1 (configuration not stated)
→ 2.7	0.5%	-4.0%	-0.5%
CCCN(c1ccc(C(=O)OC)cc1)S(=O)(=O)c1ccccc1
→ -0.3	31.8%	0.8%	-4.0%
O=C(O)CCc1ccc(S(=O)(=O)NCCc2ccccc2)cc1
→ -0.3	0.0%	-10.2%	-5.5%
COc1cccc2c(Cl)c(CC=C(Cl)Cl)c(C)nc12
→ 6.6	14.2%	-2.3%	6.3%
C=CCn1nc2n(c1=O)-c1ccccc1SC2
→ -6.5	3.8%	-24.7%	-0.4%
O=S(=O)(c1c(F)cccc1F)N(CCc1ccc(F)cc1)C[C@@H](O)COCc1ccccc1
→ .	-1.8%	.	3.9%
CN(C)c1nc2c(c(N)nn2-c2ccc(Cl)cc2)c(=O)o1
→ 6.8	-5.9%	-1.8%	-0.6%
Cc1nc2nc(-c3cccnc3)nn2c(C)c1Cl
→ -9.9	4.0%	-28.1%	-1.3%
Cc1[nH][nH]c(=O)c1C(c1c(C)[nH][nH]c1=O)c1cn(Cc2ccccc2Cl)c2ccccc12
→ -6.3	-12.6%	25.6%	0.9%
O=C(NCCc1ccccc1)C1CC(=O)N(C2CCCCCC2)C1 (configuration not stated)
→ -0.5	-1.0%	-2.3%	0.0%
COc1ccccc1NC(=O)CNC(=O)CC12CC3CC(CC(C3)C1)C2
→ .	2.5%	.	-3.6%
COc1ccc(-n2c(SCc3ccc([N+](=O)[O-])cc3)nnc2-c2ccccc2)cc1
→ -13.1	2.7%	-15.0%	0.5%
CCc1nc(N)c(C#N)c(-c2ccc(OC)c(OC)c2)c1C
→ -6.8	8.1%	-18.9%	-3.2%
O=C(OCC(=O)N1CCCc2ccccc21)c1c(F)cccc1F
→ .	-8.6%	.	-0.2%
COC(=O)c1ccc(N2C(=O)Nc3ccccc3N2O)cc1
→ 6.6	8.3%	-6.2%	-4.1%
O=C(c1cccc([N+](=O)[O-])c1)N1CCCC(C(=O)N2CCCCC2)C1 (configuration not stated)
→ -6.8	1.8%	0.0%	-0.5%
Cc1ccc(C)c2[nH]c(=O)c(CN(Cc3ccc4c(c3)OCO4)Cc3nnnn3Cc3ccco3)cc12
→ -9.2	-11.6%	14.6%	-0.6%
COc1ccc(OCC(O)CNC(=O)Nc2cc(F)ccc2C)cc1 (configuration not stated)
→ -8.2	8.0%	6.2%	-0.7%
Cc1csc2ncnc(NCCc3ccccn3)c12
→ 8.4	7.5%	7.1%	2.6%
CCOC(=O)C1(CC2CCCCO2)CCN(C(=O)NCc2ccccc2)CC1 (configuration not stated)
→ -1.3	-1.8%	-0.7%	1.5%
O=C(CN1C(=O)CNC1=O)Nc1cccc(C(F)(F)F)c1
→ 1.2	-8.4%	-5.0%	2.7%
COc1ccc(/C=N/N=C2/NC(=O)C(c3ccccc3)(c3ccccc3)S2)cc1
→ -5.8	3.9%	-1.5%	-1.9%
CC(C)Oc1cc2oc(=O)c3c(c2cc1Cl)CCC3
→ -2.2	0.3%	-5.4%	-0.7%
CCN(CC(=O)NC1CCCC1)S(=O)(=O)c1ccc(C)cc1
→ 1.4	5.9%	0.5%	2.7%
Cc1cc(/C=C(\C#N)C(=O)O)c(C)n1CC(C)C
→ -7.6	-6.8%	-23.5%	-0.3%
Cc1cc(C)c(-n2c(C)cc(/C=C3/NC(=O)NC3=O)c2C)c(C)c1
→ -15.7	-8.9%	-1.3%	-2.1%
COc1ccc(C(=O)Nc2ccc(S(=O)(=O)Nc3cc(C)nc(C)n3)cc2)c(OC)c1
→ -2.6	-7.1%	-27.6%	0.5%
Cc1ccc(NC(=O)CSc2ccccc2NC(=O)c2ccccc2)cc1Cl
→ 4.8	-16.9%	-37.8%	-2.2%
O=C(CCN1CCc2ccccc2CC1)c1ccc2c(c1)OCCO2
→ ?	3.2%	?	0.2%
COC(=O)C1=C(NC(=O)c2ccc(C)cc2)CCS1
→ -1.0	-8.2%	-0.6%	?
N#Cc1ccc[n+](CC(=O)c2ccc(Cl)cc2)c1
→ .	?	-0.2%	?
NNc1nc(Nc2ccccc2)nc(N2CCCCC2)n1
→ -15.8	29.9%	-12.4%	1.8%
C=CCn1c(SCC(=O)N2CCc3ccccc3C2)nc2sc(C)cc2c1=O
→ 6.7	0.4%	1.0%	5.7%
O=C(Cn1ncc2c3ccccc3n(Cc3ccccc3)c2c1=O)NCc1ccccn1
→ .	12.6%	-3.6%&-1.0%	2.0%
C/C(=N\NC(=O)COc1ccc(C(C)(C)C)cc1)c1ccc(OC(F)F)cc1
→ -5.2	1.1%	-13.6%	1.9%
CC(=O)CC(=O)Nc1ncc(C(F)(F)F)cc1Cl
→ 5.5	4.9%	-0.2%	0.3%
Cc1ccc(Cn2c(=O)n(Cc3ccco3)c(=O)c3ccccc32)cc1
→ 7.3	-1.8%	-3.9%	-3.3%
O=C1CCCC2=C1C(c1ccccc1)CC(=O)N2c1ccccc1 (configuration not stated)
→ 3.2	-15.9%	-6.8%	0.0%
Cc1ccc(N2C(=O)C(Cc3ccccc3)NC2=S)cc1 (configuration not stated)
→ -0.2	15.4%	-13.0%	0.8%
Cc1cc([N+](=O)[O-])nn1CCCC(=O)O
→ -1.6	12.8%	-5.9%	-1.3%
O=C(Nc1cccc(F)c1)c1c(F)c(F)c(F)c(F)c1F
→ 0.4	3.7%	-3.3%	-5.2%

Next structures
The line under a structure holds: GLA inh pH 4.5	Rango release inh	miR-21 FLuc	Rango complex inh
c1cc(CN2CCCCC2)cc(OCCCNc2nc3ccccc3s2)c1
→ -13.0&-11.2	-23.0%	.	-3.4%
O=C(/C(=C/O)N=Nc1ccc(Cl)cc1)c1ccncc1
→ 7.2	0.1%	0.0%	1.9%
CCCCCNS(=O)(=O)c1cc2c3c(c1)CCC(=O)N3CCC2
→ .	1.3%	9.4%	0.3%
OCCN1CCN(CC(O)COc2ccc(C34CC5CC(CC(C5)C3)C4)cc2)CC1 (configuration not stated)
→ 6.2	-5.4%	?	-5.1%
CCCC(NC(=S)NCC1CCCO1)C12CC3CC(CC(C3)C1)C2 (configuration not stated)
→ -8.8	0.6%	0.7%	1.3%
CC1(C)CC(NC(=O)c2cccc3ccccc23)CC(C)(C)N1
→ 9.7	2.2%	-0.3%	3.2%
CC(=O)O[C@H]1CC[C@@]2(C)C(=CC[C@H]3[C@@H]4CC[C@H](C(C)=O)[C@@]4(C)CC[C@@H]32)C1
→ .	0.1%	.	0.0%
CCOC(=O)C1=C(N)n2c(s/c(=C/c3ccccc3)c2=O)=C(C(=O)OCC)C1c1ccccc1 (configuration not stated)
→ 5.0	.	-0.6%	.
O=C1CC(N2CCN(c3ccccc3)CC2)C(=O)N1c1cccc(Cl)c1 (configuration not stated)
→ .	-7.9%	-9.8%	-0.2%
Cc1cc(C)n(C(=O)Cn2nc([N+](=O)[O-])cc2C)n1
→ -6.3	12.5%	-0.4%	-0.4%
CCCNc1c(NS(=O)(=O)c2ccc(OC)c(OC)c2)c(=O)oc2ccccc12
→ .	2.7%	1.8%	-2.8%
Cc1ccc(C2(C)NC(=O)N(CC(=O)NC3CCCCC3)C2=O)cc1 (configuration not stated)
→ .	-18.0%	.	-0.7%
Cc1ccc(C(=O)NC2CCS(=O)(=O)C2)cc1S(=O)(=O)N1CCCCC1 (configuration not stated)
→ -5.1	-10.7%	3.0%	-1.2%
CCOc1ccc(CCNC(=O)c2cc(C)on2)cc1OCC
→ .	11.0%	-4.0%	-0.1%
CC(O)CNc1nc2c(c(=O)n(Cc3cccc(Cl)c3)c(=O)n2C)n1C (configuration not stated)
→ .	10.1%	-7.0%	-1.4%
Cc1ccc(S(=O)(=O)N2CCN(C(=O)COC(=O)/C=C/c3ccc(OC(F)F)cc3)CC2)cc1
→ .	-9.7%	.	1.2%
CC(C)Cc1ccc(S(=O)(=O)N2CCN(C(=O)c3ccco3)CC2)cc1
→ 2.1	?	1.3%	2.1%
CCC1=NN(C(=O)Cc2ccc([N+](=O)[O-])cc2)C(O)(C(C)(C)C)C1 (configuration not stated)
→ 5.6	-10.5%	-11.5%	0.8%
Cc1ccc(-n2c3c(cc(C(=O)Nc4cccc(C)n4)c2=O)C(=O)CCC3)cc1
→ -12.2	.	2.4%	.
O=C(CSc1nc2ccccc2[nH]1)NCc1ccco1
→ 7.2	-7.8%	-26.0%	?
CCC(=NC1CC(C)(C)NC(C)(C)C1)C1=C(O)CC(C)(C)CC1=O
→ -7.8	10.9%	-3.5%	1.4%
COc1cc(NC(=O)Cc2ccccc2)ccc1NC(=O)c1ccccc1
→ .	-2.3%	-13.4%	0.4%
Cc1cc(C)nc(/N=C(\N)N2CCCCCC2)n1
→ -6.7	-12.8%	-11.4%	-2.7%
CCOC(=O)CCc1c(C)c2ccc(OC3CCCCC3=O)cc2oc1=O (configuration not stated)
→ .	-18.7%	-17.9%	-1.9%
COC(=O)C1CCN(S(=O)(=O)CCNC(=O)c2ccc(F)cc2)CC1
→ .	-5.5%	.	-3.5%
CC(=O)c1c(C(C)=O)c(C)n(-c2ccc(N)c(C)c2)c1C
→ -0.1	-10.0%	2.6%	0.2%
Cc1cc(Cl)ccc1OCCCC(=O)NCC1CCCO1 (configuration not stated)
→ -2.8	17.8%	-13.9%	-0.6%
CCc1ccc(/C=C2\Oc3c(ccc(O)c3CN3CCN(C)CC3)C2=O)cc1
→ -10.0	?	-8.6%	?
COc1ccc(S(=O)(=O)N2CCCCCC2)cc1C(=O)Nc1cccc(C)n1
→ .	-8.0%	2.9%	-1.4%
Cc1nc(NC(=O)/C=C/c2ccccc2)sc1C(=O)Nc1ccc(Cl)cc1
→ -0.5	4.0%	7.3%	-0.2%
CC(=O)Nc1ccc(Nc2nc(C)c([N+](=O)[O-])c(Nc3ccccc3)n2)cc1
→ -18.0	1.3%	?	-1.4%
COc1ccc(S(=O)(=O)N2CCC[C@H]2C(=O)NC2=NCCS2)cc1
→ 8.4	25.9%	-1.3%	-0.1%
Cc1cc(C)nc(SCC(=O)c2ccc(C)c(C)c2)n1
→ .	-1.4%	-22.3%	0.6%
CCC(NS(=O)(=O)c1ccc(C)cc1)C(=O)O (configuration not stated)
→ 8.9	4.8%	-2.1%	2.0%
O=C(Nc1cc(Sc2ccccn2)cc([N+](=O)[O-])c1)c1ccc([N+](=O)[O-])cc1
→ 0.7	6.0%	-1.8%	1.4%
CC(C)(O)C#Cc1ccc(C(=O)N2CCC(C(N)=O)(N3CCCCC3)CC2)o1
→ .	5.2%	0.8%	0.4%
Cc1sc(N)nc1-c1ccccc1
→ 5.7	-9.6%	-1.8%	-7.1%
O=C(COc1cccnc1[N+](=O)[O-])Nc1ccc2c(c1)OCO2
→ 5.6	0.0%	-22.0%	1.7%
COc1cccc(C(=O)Nn2cnnc2)c1
→ -22.0	-9.3%	-8.8%	-0.8%
CN(CCNC(=O)c1cn(C)c2ccc(S(=O)(=O)N(C)C)cc2c1=O)CCc1ccccc1
→ -0.4	-8.7%	-10.2%	0.6%
CCOc1ccc(NC(=O)C23CC4CC(C2)CC(c2ccccc2)(C4)C3)cc1
→ -3.3	-5.4%	2.4%	0.4%

Compound activity deposited in PubChem by National Center for Advancing Translational Sciences (NCATS).
